VACV Venus inh: vaccinia inhibition (Venus reporter). hit rate 0.46% among 330,000. Vaccinia virus Venus reporter expression, fluorescence. AID 720580. Potency, µM (highest dose often 36.5 µM), inactives show top-dose activity change, negative = inhibition, actives largely listed as inhibitors; active means well fitted inhibition curve with a large enough effect; inconclusive means small, poorly fitted or top-dose-only effect; inactive means no such curve, though single readings can be large or run the other way; tested in A549 cells; further: nearly all actives have a fitted effect of over 30% in size; inactives centre near -10
VACV mCherry inh: vaccinia inhibition (mCherry reporter); Vaccinia virus mCherry reporter infection, fluorescence; about a quarter of the inactives have no number; AID 720579; Potency, µM (doses to about 36.5 µM), without a hit: at the highest dose activity change, negative = inhibition, actives largely listed as inhibitors; hit rate 0.63% among 310,000; active = well fitted inhibition curve with a large enough effect; inconclusive = small, poorly fitted or top-dose-only effect; inactive = no such curve, though single readings can be large or run the other way; tested in A549 cells; further: nearly all actives have a fitted effect of over 35% in size; inactives centre near -10
* = called active by the depositor; i = inactive; ? = inconclusive; nt = no result given; & = joins results of further samples; [ ] = another dose, or the depositor's remark. On the % scale 0 is the no-effect control and ±100 the full control effect; potency means the concentration at half of the fitted maximal effect.

SMILES	VACV Venus inh	VACV mCherry inh
CC(Sc1nc2c(c(=O)[nH]1)CCCC2)C(=O)Nc1ccc(Br)cn1 (centres undefined)	11%	9%
O=C(C[n+]1ccccc1Br)c1ccc(-c2ccccc2)cc1	-13%	-15%
COc1cccc(-c2nc(SCC(=O)Nc3ccc4c(c3)OCCO4)c(-c3ccc(C)cc3)[nH]2)c1	-10%	-12%
CCOc1ccccc1C(=O)Nc1ccc2c(c1)N(C)C(=O)c1ccccc1S2	-30%	-12%
CCn1c(SCC(=O)NCc2ccco2)nc2cccnc21	-3%	-3%
Cc1onc(-c2c(Cl)cccc2Cl)c1COC(=O)c1ccc([N+](=O)[O-])cc1	-2%	?
Cc1ccccc1Nc1c(C)c(C)nc2ncnn12	-5%	-14%
CCOC(=O)c1cc(NC(=O)CC(C)(C)CC(=O)O)ccc1N1CCCCC1	-4%	i
N=P(N1CCOCC1)(N1CCOCC1)C12CC3CC(CC(C3)C1)C2	-10%	nt
CCOc1ccc(NC(=O)CN(c2ccccc2OCC)S(=O)(=O)c2ccccc2)cc1	-15%	-15%
Cc1cc(Br)ccc1SCC(=O)OCC(=O)NC1CC1	-9%	-9%
COc1cccc(NC(=O)Cn2c(=O)n(Cc3ccc(F)cc3)c(=O)c3sc4ccccc4c32)c1	0%	-10%
OC(CN1CCN(Cc2ccccc2)CC1)c1ccc(Br)cc1 (centres undefined)	-12%	-12%
S=C(Nc1ccc(Cl)cc1)NN1CCOCC1	-5%	-10%
C=CCOC(=O)CCCC(=O)NC1CCCCC1	-5%	nt
CCS(=O)(=O)c1ncc(N(Cc2ccco2)Cc2sccc2C)c(C(=O)Nc2ccc(C)cc2C)n1	-10%	-14%
Cc1cc(C)cc(N(CCC(=O)O)S(=O)(=O)c2ccc3ccccc3c2)c1	-19%	-15%
COc1cccc(CNC(=O)c2ccc3nc(N4CCCCC4)sc3c2)c1OC	-13%	-10%
Cc1ccc(S(=O)(=O)N2CC(O)CC2C(=O)Nc2ccc3c(c2)CCC3)cc1 (centres undefined)	-13%	?
O=C(O)c1nn(-c2ccccc2)c(-c2ccccc2)c1C(=O)c1ccccc1	-6%	-8%
O=C(NCc1ccco1)C(=O)NCC1OCCN1C(=O)c1ccc(Cl)cc1 (centres undefined)	-8%	7%
COc1ccc(OC)c(/C=N/NC(=O)Cc2nc3ccccc3[nH]2)c1	5%	-4%
COC/C=C/C1=CC2=CC(=O)C(C)(OC(=O)c3cnc4ccccc4n3)C(=O)C2=CN1Cc1ccc(OC)cc1 (centres undefined)	-26%	-10%
O=C(CN1C(=O)NC2(CCCCCC2)C1=O)N1CCN(S(=O)(=O)c2ccc(Cl)cc2)CC1	-11%	i
Cc1ccc(-n2nc(CN3CCOCC3)c(-c3ccccc3)c2N)c(C)c1	2%	-6%
Other compounds:
SMILES	VACV Venus inh	VACV mCherry inh
COc1ccc2c(c1)CCCN2C(N)=Nc1ccc(Cl)cc1	-8%	-29%
O=C1SC(c2ccccc2)=C/C1=C\N1CCCCC1	-12%	-27%
COc1ccc(NC(=O)Nc2cc(NC(=O)Nc3ccc(OC)cc3)c(C)nc2C)cc1	-17%	i
Cc1ccc(Cl)cc1N1CCN(S(=O)(=O)c2ccc3[nH]c4c(c3c2)CCCCC4)CC1	2%	-11%
COc1ccccc1NC(=O)CNC(=O)Cn1c(C)cc2ccccc2c1=O	-17%	-12%
O=C(COc1ccc(F)c(Cl)c1)N1CCCCCCC1	-7%	-4%
CSc1nnc(-c2ccc(S(=O)(=O)N3CCOCC3)cc2)n1C	-4%	i
COc1ccc(OC)c(NC(=O)Cn2cnc3c(cnn3-c3ccccc3)c2=O)c1	-26%	-5%
Cc1ccc(Nc2ccc3cc(S(=O)(=O)N4CCC(C)CC4)ccc3n2)c(Cl)c1	-18%	-7%
C=CCOc1c(Cl)cc(CNc2ccc3[nH]c(=O)[nH]c3c2)cc1OC	?	?
Cc1nc2sc(C(c3ccc(C(C)C)cc3)N3CCN(CCO)CC3)c(O)n2n1 (centres undefined)	-1%	37%[activator]
C=CCc1ccc(OCCCCN2CCC(C)CC2)c(OC)c1	-17%	-12%
C=C1CCN([C@H](C(=O)NCc2cc(OC)c(OC)c(OC)c2)C(C)C)S(=O)(=O)c2ccccc21	-7%	-12%
CN(c1ccccc1)S(=O)(=O)c1ccc(Cl)c(C(=O)OCC(=O)NCc2ccco2)c1	-9%	-8%
C=CCn1cnc2c(nnn2-c2ccc(C)c(Cl)c2)c1=O	-7%	-3%
Cc1cc(-c2ccnc(-n3ncc(C(=O)N(C)Cc4nccs4)c3C)n2)c(C)s1	-12%	-22%
COc1ccc(/C=C/C(=O)NC(=S)NNC(=O)c2cccs2)cc1	-14%	-29%
CN(C)c1ncnc2c1ncn2[C@H]1CN(Cc2ccc(F)cc2)C[C@@H](CO)O1	10%	-2%
O=C(COC(=O)CCc1nc2ccccc2s1)NCc1ccco1	-1%	-2%
Cc1cc([N+](=O)[O-])ccc1NC(=O)c1cncc(Br)c1	-20%	-5%
Cc1cc(C)c2[nH]c(O)c(N=Nc3ccc(C(=O)O)cc3)c2c1	-5%	i
O=C(Cn1cccc1C(=O)c1ccccc1)NCc1ccccc1Cl	-5%&-10%	-12%
O=C(COC(=O)C1CCC1)Nc1cc(S(=O)(=O)N2CCOCC2)ccc1Cl	-9%	i
CCOc1ccc(NC(=O)C[n+]2ccccc2)cc1	-13%	-12%
CC(=O)N1CCC(N(C(=O)Nc2ccc(C)c(F)c2)C(C)C)CC1	-6%	-1%
Next part:
SMILES	VACV Venus inh	VACV mCherry inh
COc1cccc(C2=CC(c3cccc(OC)c3OC(F)F)n3nnnc3N2)c1 (centres undefined)	-23%	-27%
Cc1ccc(CN2CCC(C3(c4ccccn4)NC(=O)N(CC4CCCO4)C3=O)CC2)cc1C (centres undefined)	-17%	-4%
CCN(CC)S(=O)(=O)c1ccc(NC(=O)CO/N=C(\N)c2ccccc2)cc1	-11%	-17%
Cc1nc2ccccc2c(=O)n1/N=C/c1ccccc1Cl	-3%	-8%
O=C(O)c1cncc(Br)c1	3%	-14%
CCCNC(=O)c1nnsc1S(=O)c1ccc(Cl)cc1 (centres undefined)	?	?
O=C(Nc1ccccc1C(=O)OCc1cc(=O)n2ccsc2n1)c1cccc(F)c1	-21%	i
CCCC1NC(=S)N(C2CCCCC2)C1=O (centres undefined)	-14%	-19%
COc1ccccc1Oc1ccc(S(=O)(=O)N2CCOCC2)cc1S(=O)(=O)N1CCOCC1	-10%	nt
COC(=O)/C(=C/c1c[nH]c2ccccc12)NC(C)=O	6%	i
CN(C1(C)CCS(=O)(=O)C1)S(=O)(=O)c1cccc([N+](=O)[O-])c1 (centres undefined)	-2%	-11%
Cc1ccc(O)c(NC(=S)NC(=O)C(C)C)c1	-8%	-29%
COc1ccc(NS(=O)(=O)c2ccc(NC(=O)C3CCCO3)cc2)cc1 (centres undefined)	-19%	-24%
Cc1ccc(S(=O)(=O)N2CCCC2C(=O)OCc2ccccc2)cc1 (centres undefined)	-4%	-12%
O=C(NCCc1ccccc1)c1cccc(NC(=O)C2CC2)c1	-18%	0%
CN(C(=O)c1ccc2c(c1)CCN2S(C)(=O)=O)c1ccccc1	-1%	0%
CC(=O)Nc1ccc(S(=O)(=O)c2ccc(C)cc2)cc1	-14%	i
Cc1nc(NC(=O)c2ccc3c(c2)OCCO3)ccc1Br	-18%	-8%
Cc1ccccc1C(=O)Nc1ccc(-c2nc3ccc(C(=O)c4ccccc4)cc3[nH]2)cc1	?	nt
CC(=O)N1CCc2c(sc(NC(=O)C3COc4ccccc4O3)c2C(N)=O)C1 (centres undefined)	-23%	-24%
Cc1cccc(CN2CCN(C3CN(Cc4cn(Cc5ccc(F)cc5)nn4)S(=O)(=O)C3)CC2)c1 (centres undefined)	-1%	i
S=c1[nH]nc(-c2ccccn2)n1/N=C/c1ccc(Br)s1	-10%	-12%
CCOC(=O)N1C2C=C(C)[C@@H]2[C@@H]2CC(=O)N21 (some centres undefined)	0%	i
O=C(Nc1ccc(Br)cc1)N1CCCCC1	-15%	-4%
Cc1ccc(S(=O)(=O)NCCSCc2ccccc2)cc1	-27%	nt

The closing three entries of the part before lead into the next.
SMILES	VACV Venus inh	VACV mCherry inh
CCOC(=O)N1C2C=C(C)[C@@H]2[C@@H]2CC(=O)N21 (some centres undefined)	0%	i
O=C(Nc1ccc(Br)cc1)N1CCCCC1	-15%	-4%
Cc1ccc(S(=O)(=O)NCCSCc2ccccc2)cc1	-27%	nt
O=C(Nc1ccc(Cc2ccncc2)cc1)c1cc(F)c(F)cc1Cl	-8%	i
CCN(CC)S(=O)(=O)c1ccc(O)c(NC(=O)c2cc(-c3cc(OC)c(OC)c(OC)c3)nc3ccccc23)c1	-20%	-15%
CCOC(=O)CN1C(=O)NC2NC(=O)NC21 (centres undefined)	-7%	nt
O=C(O)/C=C/C(=O)NNc1ccc([N+](=O)[O-])cc1	3%	i
Cc1ccccc1NC(=S)N1CCCC(c2nc3ccccc3[nH]2)C1 (centres undefined)	5%	1%
O=C(COC(=O)c1cccc(S(=O)(=O)Nc2ccc(F)cc2)c1)NCCN1C(=O)CSC1=O	-4%	-11%
COC(=O)C[C@H]1c2cc(C(F)(F)F)ccc2S(=O)(=O)N1C(C)(C)C	-9%&-7%	-12%
Cc1onc(C(=O)N2CCOCC2)c1[N+](=O)[O-]	-19%	i
COc1ccc(N2CCN(C(=O)CNC(=O)Cc3ccccc3)CC2)cc1	-16%	-1%
CC1CCN(C(=O)COc2coc(CN3CCc4ccccc43)cc2=O)CC1	-20%	-4%
CCCC(CCC(=O)Nc1cccc([N+](=O)[O-])c1)C(=O)O (centres undefined)	3%	-6%
CN1CCn2cnc(C(=O)Nc3ccc(CNC(=O)OC(C)(C)C)cc3)c2C1=O	-2%	i
COc1ccc(-n2c(=O)c(NC(=O)c3ccccc3)c3n(c2=S)CCCCC3)cc1	-5%	?
c1nc(N2CCCC2)c2[nH]cnc2n1	-18%	-22%
CN(C)c1ccc(C(=O)NCCCSc2ccccc2)cc1	-19%	-3%
Cc1cccc(C(=O)NCC(=O)OCc2cc(=O)n3nc(C4CCCCC4)sc3n2)c1	5%	7%
COc1cc2ccccc2cc1C(=O)OCC(=O)NC1CCS(=O)(=O)C1 (centres undefined)	-4%	-6%
O=c1c(-c2ccc(Cl)cc2)coc2c(CN3CCOCC3)c(O)ccc12	-21%	-22%
O=C(Nc1cccc(O)c1)c1cc(-c2ccccc2F)no1	-9%	-5%
CCC(=O)N1c2nc(-c3ccco3)nn2C2(CCCCC2)[C@@H]2CCCC[C@@H]21	-14%	-3%
C[C@H]1CNC(=O)c2c(C(=O)Nc3ccc(CNC(=O)OC(C)(C)C)cc3)ncn21	?	?
CC1N=C(c2ccccc2Cl)c2cc(Br)ccc2NC1=O (centres undefined)	-22%	3%
COc1ccc(C(=O)NCC(c2cccnc2)N2CCN(c3ccc(F)cc3)CC2)cc1 (centres undefined)	-23%	-14%
CCN(CC)C(=O)Cn1c(=O)cc(C)c2c(C)nn(-c3cccc(Cl)c3C)c21	1%	-6%
Clc1ccc(-c2cc3ccccc3[nH]2)cc1	-1%	-8%
New compounds follow.
SMILES	VACV Venus inh	VACV mCherry inh
CCOc1ccccc1C(=O)N[C@H](C(=O)OCc1cc([N+](=O)[O-])cc2c1OCOC2)C(C)C	?	?
O=C1NCCCC1C(=O)NCCN1C(=O)CCC1=O (centres undefined)	-12%	-12%
Cc1ccc(/C=N/N2CCN(Cc3cccc4ccccc34)CC2)o1	-23%	nt
COc1ccc(Cc2nnc(NC(=O)C3CC(=O)N(c4ccc(OC)cc4)C3)s2)cc1 (centres undefined)	-12%	0%
COc1ccc(CCNC(=O)c2cc(S(=O)(=O)N(C)C)ccc2N2CCCC2)cc1OC	-5%	-11%
CN1C(c2ccccc2)=NO[C@]1(C)c1ccccc1	-8%	-8%
Cc1cc(NC(=O)CCC(=O)N(CC(=O)NC2CCCC2)c2ccccc2)no1	-15%	-12%
O=[N+]([O-])c1ccc(NCCCO)c(C(F)(F)F)c1	-8%	-12%
Cc1ccc(OCCCC(=O)Nc2ccc(S(N)(=O)=O)cc2)cc1	4%	1%
COc1ccc(-c2[nH]nc3nc(-c4cc(Br)ccc4OC)cc(C(=O)O)c23)cc1	-11%	-5%
O=C(Nc1cc(C(F)(F)F)ccc1Cl)c1cc(-c2cccs2)nc2ccccc12	-3%	-15%
CCOC(=O)c1c(S(=O)(=O)N2CCC(C(=O)NCc3ccc(F)cc3)CC2)c(C)n(C)c1C	4%	-5%
CNC(=S)NNC(=O)c1ccc2c(c1)OCO2	1%	i
COc1cc(/C=N/NC(=O)COc2cc(C)cc(C)c2)ccc1OS(=O)(=O)c1ccc(C)cc1	-23%	i

4 compounds picked at random from those above, as already listed:
SMILES	VACV Venus inh	VACV mCherry inh
OC(CN1CCN(Cc2ccccc2)CC1)c1ccc(Br)cc1 (centres undefined)	-12%	-12%
COc1ccc(Cc2nnc(NC(=O)C3CC(=O)N(c4ccc(OC)cc4)C3)s2)cc1 (centres undefined)	-12%	0%
COc1ccccc1NC(=O)CNC(=O)Cn1c(C)cc2ccccc2c1=O	-17%	-12%
Cc1ccc(O)c(NC(=S)NC(=O)C(C)C)c1	-8%	-29%

Rewritten with two lines to a compound: 3 of the compounds above
The line under a structure holds: VACV Venus inh	VACV mCherry inh
Cc1ccc(/C=N/N2CCN(Cc3cccc4ccccc34)CC2)o1
 : -23%	nt
Cc1cc(NC(=O)CCC(=O)N(CC(=O)NC2CCCC2)c2ccccc2)no1
 : -15%	-12%
O=C1NCCCC1C(=O)NCCN1C(=O)CCC1=O (centres undefined)
 : -12%	-12%

Screening data (PubChem)
